Assay outcomes deposited in PubChem by National Center for Advancing Translational Sciences (NCATS).
gsp antag: qHTS for Antagonists of gsp, the Etiologic Mutation Responsible for Fibrous Dysplasia/McCune-Albright Syndrome: qHTS; gsp-mutant cells, cAMP HTRF, 30 min; control for the full effect not named in the record; AID 624288, 2012; hit rate 0.4% among 340,000; Potency, µM (series often up to 76.9 µM), for inactives: top-dose activity change, negative = inhibition, usual class: inhibitors; active = falling curve of any shape with a large fitted effect; inconclusive = falling curve, mostly with a smaller effect; inactive = flat or rising curve; cell line not stated here;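 also: intracellular cAMP measured with PDE inhibitor Ro 20-1724 present during compound exposure; potency is read from the fitted curve at half-maximal effect; % is scaled to controls: 0 for no effect and ±100 for the full control effect; nearly all actives have a fitted effect of over 65% in size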
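Cells in G418 medium, seeded 16-24 h, 37C; buffer exchange to DPBS + 1 mM CaCl2, 0.5 mM MgCl2, 0.05% BSA; cpds in DMSO + […] (300 uM stock), 30 min 37C; HTRF cAMP detection.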
D2 PAM: Beta-Arrestin HTS for Positive Allosteric Modulators of the Human D2 Dopamine Receptor: Potentiators. D(2) dopamine receptor (Homo sapiens), P14416. DiscoveRx D2 beta-arrestin cells, luminescence, 90 min; 100% = 57 uM dopamine signal. potentiation, % (no concentration beside the values). hit rate 0.23% among 360,000; active = potentiation of 50% or more; inconclusive = 30% to 50%; inactive = 30% or less;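 also: compound concentration not given in the record; tested on top of an EC20 dose of dopamine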
Target sequence (P14416 whole entry, looked up): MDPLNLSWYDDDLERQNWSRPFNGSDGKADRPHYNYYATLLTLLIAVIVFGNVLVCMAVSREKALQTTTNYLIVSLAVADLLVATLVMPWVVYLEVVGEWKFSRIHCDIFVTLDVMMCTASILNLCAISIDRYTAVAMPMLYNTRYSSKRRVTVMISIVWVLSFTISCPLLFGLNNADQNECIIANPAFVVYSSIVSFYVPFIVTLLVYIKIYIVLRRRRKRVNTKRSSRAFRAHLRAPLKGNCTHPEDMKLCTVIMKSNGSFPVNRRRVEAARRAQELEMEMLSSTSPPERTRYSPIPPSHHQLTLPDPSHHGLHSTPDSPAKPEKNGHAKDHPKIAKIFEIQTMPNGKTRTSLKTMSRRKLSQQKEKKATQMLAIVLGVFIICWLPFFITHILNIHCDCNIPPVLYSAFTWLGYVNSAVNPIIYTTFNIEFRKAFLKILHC
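PathHunter D2 cells, attached overnight at 37 deg C, received compound in DMSO plus dopamine at EC20 (50 nM final) for 90 min at 37 deg C. Beta-arrestin recruitment was read as luminescence after 1 h with detection reagent at ambient temperature.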
gsp ag: qHTS for Agonist of gsp, the Etiologic Mutation Responsible for Fibrous Dysplasia/McCune-Albright Syndrome: qHTS; Potency, µM (top dose mostly 76.9 µM), for the others: top-dose activation (cAMP increase), hits mostly activators; hit rate 0.13% among 340,000; AID 624287, 2012; gsp mutant cells, cAMP HTRF, 30 min; control for the full effect not named in the record; active = well fitted activation curve with a large enough effect; inconclusive = small, poorly fitted or top-dose-only effect, or another doubt; inactive = no such curve, though single readings can be large or run the other way; cell line not stated here;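 also: phosphodiesterase inhibitor Ro 20-1724 added with compounds to block cAMP breakdown; potency is read from the fitted curve at half-maximal effect; nearly all actives have a fitted effect of over 60% in size; about a fifth of the inactives were tested at one dose only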
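Cells stably selected in G418 were plated at 2000/well, grown 16-24 hr, then given compounds in DMSO with the PDE inhibitor […] (300 uM solution added) for 30 min at 37C; cAMP was read by HTRF.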
D2 ag: Beta-Arrestin HTS for Positive Allosteric Modulators of the Human D2 Dopamine Receptor: Agonists; hit rate 0.084% among 360,000; DiscoveRx PathHunter D2 beta-arrestin, luminescence, 90 min; 100% = 57 uM dopamine signal; AID 624465, 2012; D(2) dopamine receptor (Homo sapiens), P14416; activation, % (no concentration beside the values); in the data active = activation above about 40%; inconclusive = about 15% to 40%; inactive = below about 15%; also: compound concentration not given in the record; the text of the record calls up to 30% inactive
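Agonist mode: compounds alone added to overnight-plated D2 PathHunter cells for 90 min at 37 C, with 57 uM final dopamine (EC100) defining full response. Beta-arrestin recruitment detected by chemiluminescent reagent, read after 1 h at ambient temperature.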
Six1-Eya2 inh: qHTS Assay for Inhibitors of the Six1/Eya2 Interaction; hit rate 0.56% among 360,000; activity change, % (concentration not given with the values); AlphaScreen GST-Six1/His-Eya2 binding, biochemical; active compounds read low; control for the full effect not named in the record; in the data active = activity change below about -65%; inconclusive = about -30% to -65%; inactive = above about -30%; also: % is scaled to controls: 0 for no effect and ±100 for the full control effect
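GST-Six1 + His-Eya2 (5X stock: 250/500 nM); Tris pH 8.0, 300 mM NaCl, 0.05% BSA, 0.02% Tween 20; GSH donor/Ni acceptor beads; 1 h 37 °C dark; AlphaScreen readout.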
CtBP-E1A inh: qHTS Assay for Inhibitors of the CtBP/E1A Interaction; AlphaScreen GST-E1A/His-CtBP binding, 1536-well; active compounds read low; control for the full effect not named in the record; activity change, % (test concentration not listed); AID 651724, 2012; hit rate 0.49% among 340,000; CtBP / adenovirus E1A interaction (AlphaScreen); in the data active means activity change below about -65%; inconclusive means about -30% to -65%; inactive means above about -30%; also: % is scaled to controls: 0 for no effect and ±100 for the full control effect
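Steps: dispense buffer (Tris pH 8.0, NaCl 300 mM, TCEP 1 mM, BSA, Tween 20); add 5X protein mix (GST-E1A, His-CtBP, 125 nM each); pin 23 nL compound; 2 h at 37 °C, dark; add 5X beads (50 ug/mL); 1 h; read.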
Active calls of the source: *; ? = inconclusive; · = no result given; [ ] = remark or other dose.

SMILES | gsp antag | D2 PAM | gsp ag | D2 ag | Six1-Eya2 inh | CtBP-E1A inh
O=C(NC1CCCC1)C1=COCCO1 | 5.5% | 8.8 | 21.5% | 2.0 | 11.2 | 7.2
Cn1c(=O)[nH]c(=O)c2c1nc(N1CCCCC1)n2CCCSc1nc2ccccc2s1 | 32.7%[activator] | -16.7 | -13.0% | -4.9 | 0.0 | -5.9
C(=NC12CN3CN(CN(C3)C1)C2)c1ccc2c(c1)OCO2 | 1.2% | 1.2 | 21.2% | -3.3 | 1.7 | -4.1
O=C(Oc1ccc(C(=S)N2CCCCC2)cc1)c1ccccc1 | 0.9% | -4.9 | -1.8%[15.4 µM] | -4.0 | -25.5 | -22.2
Cc1sc(NC(=O)C2=COCCO2)nc1-c1ccc(Cl)cc1 | -11.1% | 0.6 | 19.1%[15.4 µM] | -6.1 | -2.4 | -3.3
COc1ccc(Cl)cc1NC(=O)CC(C)c1ccccc1 (stereo not drawn) | -12.3%[15.4 µM] | -24.7 | -56.5%[inhibitor] | -5.4 | 46.1 | 21.5
CC(C)(C)OC(=O)N1CCc2onc(-c3ccc(Br)cc3)c2C1=O | · | 0.8 | -165.9%[inhibitor] | -1.3 | -2.4 | 0.9
COc1cc(C(=O)NNC(=O)c2ccc(S(=O)(=O)N3CCCCC3)cc2)cc(OC)c1OC | 10.1% | 2.0 | -67.9%[inhibitor] | 3.3 | -1.9 | 4.4
CN(C)C(=O)c1ccc(Nc2nc(-c3cccs3)nc3ccccc23)cc1 | ? | 1.5 | ? | 7.7 | -19.1 | -18.2
C#CC1(O)CCC2C3CCC4=C(CCC(=O)C4)C3CCC21C (stereo not drawn) | -11.3% | 1.1 | 14.5%[15.4 µM] | 0.2 | 1.0 | -2.3
CC1=NN(C(N)=S)C(=O)C1N=Nc1ccc(O)cc1 (stereo not drawn) | -12.0% | -14.7 | -5.5%[15.4 µM] | -6.2 | ? | ·
COc1ccc(CC2(CO)CCN(Cc3ccc(NC(C)=O)cc3)CC2)cc1 | · | -9.9 | 10.5%[15.4 µM] | 4.8 | -2.0 | 0.0
Cc1cccc([C@@H]2[C@@H]3C(=O)N(Cc4ccccc4)C(=O)[C@@H]3[C@]3(Cc4ccccc4)C(=O)N(c4cccc(Cl)c4)C(=O)N23)c1 | -0.3% | -9.3 | · | -2.7 | -0.4 | 0.5
COc1ccc(-n2c(SCc3cccnc3)nc3c(c2=O)SCC3)cc1OC | 6.0% | -8.6 | -5.7% | 2.8 | 0.0 | -22.8
CCc1ccc(-c2ccc3nnc(SCC(=O)NCC4CCCO4)n3n2)cc1 (stereo not drawn) | 15.3% | -9.1 | 11.8%[15.4 µM] | -1.7 | -9.8 | -0.4

A section taken from the entries so far:
SMILES | gsp antag | D2 PAM | gsp ag | D2 ag | Six1-Eya2 inh | CtBP-E1A inh
O=C(NC1CCCC1)C1=COCCO1 | 5.5% | 8.8 | 21.5% | 2.0 | 11.2 | 7.2
Cn1c(=O)[nH]c(=O)c2c1nc(N1CCCCC1)n2CCCSc1nc2ccccc2s1 | 32.7%[activator] | -16.7 | -13.0% | -4.9 | 0.0 | -5.9

One compound at a time, as listed above:
Results for COc1ccc(CC2(CO)CCN(Cc3ccc(NC(C)=O)cc3)CC2)cc1 → gsp antag: ·; D2 PAM: -9.9; gsp ag: 10.5%[15.4 µM]; D2 ag: 4.8; Six1-Eya2 inh: -2.0; CtBP-E1A inh: 0.0
Results for C(=NC12CN3CN(CN(C3)C1)C2)c1ccc2c(c1)OCO2 → gsp antag: 1.2%; D2 PAM: 1.2; gsp ag: 21.2%; D2 ag: -3.3; Six1-Eya2 inh: 1.7; CtBP-E1A inh: -4.1

Remaining list, next part.
SMILES | gsp antag | D2 PAM | gsp ag | D2 ag | Six1-Eya2 inh | CtBP-E1A inh
O=C(CSc1nnc(-c2ccc(O)cc2)n1Cc1ccco1)N1CCc2ccccc2C1 | -20.9% | -16.5 | 8.7% | 0.1 | -28.5 | ?
Cc1cccc(NC(=O)CSc2nnc(NC(=O)CN3CCOCC3)s2)c1 | 1.3% | -3.0 | 1.8% | 1.4 | 9.3 | -1.7
O=C(/C=C/c1ccccc1[N+](=O)[O-])Nc1ccccc1 | -5.4% | -3.3 | 10.2% | -2.0 | 0.8 | ·
NS(=O)(=O)c1cccc(NC(=O)CN2CCN(Cc3ccc4c(c3)OCO4)CC2)c1 | 6.0% | -22.6 | 0.4% | -0.3 | -0.8 | -5.0
COc1ccc(Cl)cc1S(=O)(=O)N1CCN=C1c1ccccc1 | 9.8% | -10.0 | -20.9% | -1.3 | 20.0 | -8.6
CNS(=O)(=O)c1cccc(C(=O)OCC(=O)Nc2ccccc2F)c1 | · | 7.9 | -1.4%[15.4 µM] | 4.5 | -0.4 | 5.7
COc1ccc(C(CNC(=O)C(C)c2ccc3cc(OC)ccc3c2)N(C)C)cc1 (stereo not drawn) | 1.5% | -10.8 | -2.6%[15.4 µM] | -3.8 | 3.3 | -5.6
COc1ccc(C2(C(=O)Nc3c(C)n(C)n(-c4ccccc4)c3=O)CCCC2)cc1OC | 11.2% | -9.7 | 6.4% | -1.9 | 0.1 | 1.0
O=C(Nc1ccccc1)c1ccc(S(=O)(=O)N(CCO)CCO)cc1 | 5.5% | -4.0 | -24.2% | 1.9 | 12.2 | 5.5
CCSc1nc(O)cc(=O)n1CC | 1.5% | 4.1 | ? | -8.5 | 3.7 | 8.2
CCOc1ccc(N2C(=O)CC(N3CCOCC3)C2=O)cc1 (stereo not drawn) | 3.9% | -3.3 | -3.3% | 1.9 | -0.5 | 3.4
O=C(O)CCC(=O)Nc1ccc(-c2nc3ccc(C(=O)c4ccccc4)cc3[nH]2)cc1 | -7.4% | -4.1 | 17.8%[15.4 µM] | 3.7 | ? | -10.1
O=C(O)C1CC=CCC1C(=O)N1CCCC1 (stereo not drawn) | 1.8% | -9.8 | 7.7% | -2.0 | -22.1 | -0.5
CCOC(=O)Cn1c(=O)c2c(nc(Br)n2Cc2ccccc2Cl)n(C)c1=O | -21.8% | 8.6 | -0.9% | 1.0 | -4.1 | -5.3
O=C(CCNC(=O)C1CCN(S(=O)(=O)c2ccc(F)cc2)CC1)NCCc1ccc(Cl)cc1 | -0.7% | -6.8 | -0.4% | 0.2 | 3.1 | ·
COc1ccc(CSc2nc(C)cc(=O)[nH]2)cc1 | 0.2% | 9.2 | 3.4% | -1.0 | -2.9 | 5.6
CC(Oc1ccccc1)C(=O)Nc1ccccc1F (stereo not drawn) | 2.1% | 3.3 | -77.7%[inhibitor] | 1.7 | 8.7 | 8.1
O=C(O)CCc1ccc(-c2ccc(F)cc2)n1NC(=O)c1ccco1 | -2.6% | -8.7 | -16.2% | 4.0 | 3.0 | 5.4
O=C(NCCCNC(=O)c1ccco1)c1ccc(Cl)c(Cl)c1 | 4.0% | -8.1 | 2.9% | -0.1 | -5.8 | -2.5
CC(C)(C)c1ccc(OCc2ccc(C(=O)Nc3cccnc3)o2)cc1 | ? | -3.5 | ? | -2.9 | -5.8 | -2.9
CCOC(=O)N1CCN(C(=O)c2cnn3c(C(F)(F)F)cc(-c4cccs4)nc23)CC1 | 2.4% | 18.4 | ? | 4.1 | 2.0 | 0.0
Cc1cccc(C(=O)N2CCCC(Nc3ccc(C(C)C)cc3)C2)n1 (stereo not drawn) | 4.3% | -4.6 | 7.5% | -3.1 | 2.6 | -3.5
COc1ccc(-c2coc3cc(O)cc(O)c3c2=O)cc1OC | 5.3% | 6.8 | -13.0%[15.4 µM] | 1.9 | 5.0 | 5.0
COc1ccc(CCNC(=O)CSCc2n[nH]c(=O)[nH]2)cc1OC | -0.7% | 6.9 | 0.3% | 1.5 | 0.9 | 7.2
CC1CN(C(=O)CCC(=O)NCc2ccccc2)c2ccccc2O1 (stereo not drawn) | 6.6% | -7.4 | -7.2% | -6.1 | -0.6 | -0.1
Cc1cc(C)cc(OCc2ccc(C(=O)N3N=C(C(F)F)CC3(O)C(F)F)o2)c1 (stereo not drawn) | -0.6% | -8.1 | -20.8% | 0.4 | 9.6 | 6.0
Cc1cccc(NC(=O)c2ccccc2NC(=O)CCC(=O)O)c1 | 4.3% | -6.8 | 0.5% | -1.6 | 12.1 | -2.3
COC(=O)c1ccccc1S(=O)(=O)N1CCC(NC(=O)C(Cc2cccc(OC)c2OC)NC(C)=O)CC1 (stereo not drawn) | -5.1% | -11.7 | 14.6%[15.4 µM] | -1.4 | -1.3 | 10.1
CCOc1ccc(CCNC(=O)COC(=O)Cc2ccc(F)cc2)cc1OCC | 9.0% | 7.6 | 16.9%[15.4 µM] | -0.7 | 0.5 | -8.0
O=C(N/N=C/C(Br)=C\c1ccccc1)c1n[nH]c2c1CCC2 | 15.4% | -21.3 | ? | -3.9 | -20.7 | -87.4*
Nc1ncc([N+](=O)[O-])c(N2CCCCCC2)n1 | 10.8% | -3.6 | 13.0% | 1.2 | 0.1 | -18.4
CCOC(=O)N1CCN(C(=O)/C=C/c2ccc3c(c2)OCO3)CC1 | 6.1% | -15.6 | -2.1% | -2.8 | -9.9 | -8.2
CC(C)Cn1cnc2c(SCc3ccccc3)nc(N)nc21 | 2.8% | -0.8 | -6.4% | -0.9 | 0.4 | -2.7
C=CCOc1ccc(/C=N/NC(C)=O)cc1OCC | 1.1% | -2.9 | -0.2% | -0.7 | -13.4 | -1.8
Cc1nc2c(-c3ccc(F)cc3)c(C)nn2c(C)c1CCC(=O)Nc1ccccc1F | -4.4% | -8.5 | -27.5% | -2.8 | 8.9 | 9.9
Cc1ccc(/C=C2/Sc3ccc(C(=O)NCCN4CCOCC4)cc3NC2=O)cc1 | 3.8% | -5.8 | -11.0% | -3.0 | 0.1 | ·
Nc1nonc1-n1nnc(C(=O)N/N=C/c2cccc(Cl)c2)c1CN1CCCC1 | -18.3% | -4.0 | 16.8% | -0.9 | 1.7 | -0.7
COc1ccc(C2=NS(=O)(=O)N(C)C(C(=O)Nc3ccc(C(C)=O)cc3)=C2)cc1OC | 31.6µM* | -2.5 | 34.6% | 8.1 | -12.8 | -5.5
COc1nn(CC(=O)N2N=C(C)CC2(O)C(F)(F)F)cc1[N+](=O)[O-] (stereo not drawn) | 6.7% | -2.3 | 14.3% | 1.2 | 0.7 | -3.2
COc1ccc(-c2nnc(NC(=O)c3ccc4c(c3)OCCO4)o2)cc1 | -3.6% | -13.5 | 0.6% | -2.0 | -14.8 | -11.8
CC(C)(CO)NC(=O)c1ccc2nc(Cc3cccc(Cl)c3)oc2c1 | -0.4% | 15.1 | 3.9% | 5.0 | -0.9 | ·
